NOMO-1 viab: NOMO-1 AML cell viability reduction, primary screen, STK33 inhibitor project, CellTiter-Glo luminescence; hit rate 7.5% among 37,000; AID 2330, 2010; NOMO-1 AML viability, 72 h; inhibition, % (no concentration beside the values);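 active = most replicates above 80%; inconclusive = exactly half above 80%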;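 also: wells of about 30 µL received 25 nL stock; 0% = median of vehicle wells and 100% = reference inhibitor level; the first replicate is given; inactives centre near 10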
* marks the source's active call; other numbers are inactive results; ? = inconclusive.

smiles | NOMO-1 viab
COc1ccc(OC)c(NC(=O)Cn2cnc3sc(C)c(-c4ccc(Cl)cc4)c3c2=O)c1 | 26
N#Cc1c(-c2ccccc2)n2c(-c3ccccc3)nn(-c3ccccc3)c2nc1=O | -23
CC(=O)Nc1ccc(OCC(O)Cn2ccnc2)cc1 (stereo unspecified) | -16
CC1(C)CC[C@@]2(C(=O)O[C@@H]3O[C@H](CO)[C@@H](O)[C@H](O)[C@H]3O)C(C1)C1=CCC3[C@@]4(C)CC[C@@H](O[C@@H]5O[C@H](C(=O)O)[C@@H](O[C@@H]6OC[C@@H](O)[C@H](O)[C@H]6O)[C@H](O[C@@H]6OC[C@](O)(CO)[C@H]6O)[C@H]5O)C(C)(C)C4CC[C@@]3(C)[C@]1(C)C[C@H]2O (stereo partly specified) | 5
C[C@@H]1CN([C@H](C)CO)C(=O)Cc2cc(NC(=O)CCCCCC(=O)Nc3ccccc3N)ccc2O[C@H]1CN(C)C | 13
COc1ccc(C)cc1NC(=O)CCN1CCN(Cc2ccccc2)CC1 | -1
C[C@@H]1CN([C@@H](C)CO)C(=O)c2cc(NS(=O)(=O)c3cn(C)cn3)ccc2O[C@@H]1CN(C)Cc1ccc(C(F)(F)F)cc1 | 17
COc1cc([N+](=O)[O-])ccc1NC(=S)NC(=O)COc1ccc(C)cc1 | 9
CNC[C@H]1OCCCC[C@@H](C)Oc2ccc(NS(=O)(=O)c3ccc(Cl)cc3)cc2C(=O)N([C@H](C)CO)C[C@@H]1C | 19
COc1ccc(CN(C)C[C@H]2Oc3ccc(NC(=O)Nc4c(C)noc4C)cc3CC(=O)N([C@@H](C)CO)C[C@H]2C)cc1 | 25
C[C@H]1CN([C@@H](C)CO)C(=O)c2cccc(NC(=O)Nc3ccc(C(F)(F)F)cc3)c2O[C@@H]1CN(C)C(=O)NC1CCCCC1 | 51
Cc1ccc(-c2nc3ncccc3o2)cc1NC(=O)C(C)Oc1ccc(Cl)cc1Cl (stereo unspecified) | 17
O=C(CSc1nnc(-c2ccco2)o1)c1ccc(Oc2ccccc2)cc1 | 11
CNC[C@@H]1Oc2ccc(NC(=O)Nc3ccccc3)cc2C(=O)N([C@@H](C)CO)C[C@@H]1C | 25
C[C@@H]1O[C@@H](O[C@H]2[C@H](O)[C@@H](O[C@@H]3O[C@H](CO)[C@@H](O)[C@H](O[C@@H]4O[C@H](CO)[C@@H](O)[C@H](O)[C@H]4O)[C@H]3O)[C@H](O[C@H]3CC[C@@]4(C)C(=CC[C@@H]5C4CC[C@@]4(C)C5C[C@@H]5O[C@]6(CC[C@@](C)(CO[C@@H]7O[C@H](CO)[C@@H](O)[C@H](O)[C@H]7O)O6)[C@@H](C)[C@@H]54)C3)O[C@@H]2CO)[C@H](O)[C@H](O)[C@H]1O (stereo partly specified) | 120*
C[C@H]1CN([C@@H](C)CO)C(=O)Cc2cc(NC(=O)Cc3ccccc3)ccc2O[C@@H]1CN(C)S(=O)(=O)c1ccc(Cl)cc1 | 34
Cc1noc(C)c1S(=O)(=O)Nc1cccc2c1O[C@H](CN(C)C(=O)NC1CCCCC1)[C@H](C)CN([C@H](C)CO)C2=O | 12
O=C(NCCN1CCNCC1)c1ccccn1 | -28
O=C1c2ccc(-c3ncc(-c4ccccc4)o3)cc2C(=O)N1c1ncn[nH]1 | -6
COc1cc(O)c(OC)c2c1C(=O)CC(c1ccccc1)O2 (stereo unspecified) | -4
C[C@@H]1CN([C@@H](C)CO)C(=O)c2cc(NC(=O)C3CCCCC3)ccc2O[C@@H]1CN(C)C(=O)Nc1ccc(C(F)(F)F)cc1 | 75
C[C@H]1CN([C@@H](C)CO)C(=O)Cc2cc(NC(=O)NC3CCCCC3)ccc2O[C@H]1CN(C)S(=O)(=O)c1ccccc1 | 1
C[C@@H]1CN([C@@H](C)CO)C(=O)c2cc(NC(=O)Nc3ccccc3)ccc2O[C@@H]1CN(C)C(=O)Nc1ccc2c(c1)OCO2 | 17
CCc1ccc(NC(=O)CN(C)S(=O)(=O)c2ccc3ccccc3c2)cc1 | 26
COc1ccc(NC(=O)Nc2ccc3c(c2)C(=O)N([C@H](C)CO)C[C@H](C)[C@H](CN(C)C(=O)Nc2ccc(OC)cc2)OCCCC[C@@H](C)O3)cc1 | 6
C[C@@H]1CN([C@@H](C)CO)C(=O)c2cc(NC(=O)CCC(F)(F)F)ccc2O[C@@H]1CN(C)C(=O)Nc1cccc2ccccc12 | 5
Cc1noc(C)c1NC(=O)Nc1cccc2c1O[C@@H](CN(C)C(=O)NC1CCCCC1)[C@@H](C)CN([C@H](C)CO)C2=O | -21
C[C@H]1CN([C@@H](C)CO)C(=O)c2cc(NS(=O)(=O)c3ccccc3)ccc2O[C@H]1CN(C)Cc1ccc(-c2ccccc2)cc1 | -1
C[C@@H]1CN([C@H](C)CO)C(=O)Cc2cc(NC(=O)c3ccncc3)ccc2O[C@H]1CN(C)C(=O)Nc1cccc2ccccc12 | 2
C[C@@H]1CCCCO[C@H](CN(C)Cc2ccc(C(=O)Nc3ccccc3N)cc2)[C@@H](C)CN([C@H](C)CO)C(=O)c2cc(NS(=O)(=O)c3cccs3)ccc2O1 | 127*
O=C(O)C1C2C=CC(C2)C1C(=O)Nc1ccc(C(=O)N2CCCCC2)cc1 (stereo unspecified) | -8
CC1CC(=O)c2c(ccc3c2C(=O)c2cccc(O)c2C3O)C1 (stereo unspecified) | 118*
C[C@@H]1CN([C@H](C)CO)C(=O)c2cccc(NC(=O)c3ccc(-c4nccs4)cc3)c2O[C@@H]1CN(C)Cc1ccc(C(F)(F)F)cc1 | 14
CC(C)(C)c1ccc2cc(C#N)c(C#N)cc2c1 | 140*
C[C@H](CO)N1C[C@H](C)[C@H](CN(C)Cc2ccc(C(=O)O)cc2)Oc2ccc(NC(=O)Nc3cccc4ccccc34)cc2CC1=O | 9
COc1ccc(S(=O)(=O)N(C)C[C@H]2Oc3c(NS(=O)(=O)c4cn(C)cn4)cccc3C(=O)N([C@@H](C)CO)C[C@H]2C)cc1 | 17
Cc1ccc2nc(Nc3nc(CSc4nnc(C)s4)cc(=O)[nH]3)nc(C)c2c1 | 41
CCOC(=O)c1c(NC(=O)CSc2ccccn2)sc(C)c1C | 3
COc1ccc(NC(=O)C(C)N(c2ccc(C)cc2)S(C)(=O)=O)cc1 (stereo unspecified) | 8
COc1cc(C(=O)NC2(C(F)(F)F)C(=O)N(Cc3ccco3)C3=C2C(=O)CC(C)(C)C3)cc(OC)c1OC (stereo unspecified) | 26
C[C@@H]1CN([C@@H](C)CO)C(=O)c2cccc(NC(=O)Nc3ccccc3)c2O[C@H]1CN(C)C(=O)Nc1cccc2ccccc12 | 7
COc1ccc(S(=O)(=O)Nc2ccc3c(c2)C(=O)N([C@H](C)CO)C[C@H](C)[C@H](CN(C)Cc2ccc(Cl)c(Cl)c2)OCCCC[C@@H](C)O3)cc1 | 71
C[C@H]1CN([C@@H](C)CO)C(=O)c2cc(NS(=O)(=O)c3cccs3)ccc2O[C@H]1CN(C)S(=O)(=O)c1ccc(Cl)cc1 | 31
C[C@@H]1CCCCO[C@@H](CN(C)CC2CC2)[C@@H](C)CN([C@H](C)CO)C(=O)c2cc(NC(=O)C3CCCCC3)ccc2O1 | 35
Cc1ccc(S(=O)(=O)Nc2ccc3c(c2)CC(=O)N([C@H](C)CO)C[C@H](C)[C@H](CN(C)S(=O)(=O)c2ccc(F)cc2)O3)cc1 | 13
Cc1ccc(NC(=O)CN(c2cc(Cl)c(Cl)cc2Cl)S(C)(=O)=O)cc1 | 16
C[C@@H]1CN([C@@H](C)CO)C(=O)c2cccc(NC(=O)c3ccncc3)c2O[C@H]1CN(C)S(=O)(=O)c1ccc(F)cc1 | 20
C[C@@H]1CCCCO[C@@H](CN(C)C(=O)Nc2ccc3c(c2)OCO3)[C@@H](C)CN([C@H](C)CO)C(=O)c2cc(NS(=O)(=O)c3ccc(F)cc3)ccc2O1 | 9
C[C@@H]1CN([C@@H](C)CO)C(=O)c2cccc(NC(=O)C3CC3)c2O[C@H]1CN(C)C(=O)Nc1ccc(C(F)(F)F)cc1 | -3
CN(Cc1nc(-c2cccc([N+](=O)[O-])c2)no1)S(=O)(=O)c1ccccc1 | -9

The listing continues:
smiles | NOMO-1 viab
CC(NS(=O)(=O)c1ccc(Cl)cc1)C(=O)Nc1cccc([N+](=O)[O-])c1 (stereo unspecified) | 11
C[C@H](CO)N1C[C@H](C)[C@H](CN(C)S(=O)(=O)c2ccc(F)cc2)Oc2ccc(NC(=O)Nc3ccc4c(c3)OCO4)cc2CC1=O | 126*
COc1ccc(NC(=O)CCN2C(=O)c3ccccc3S2(=O)=O)cc1 | 9
CCOC(=O)c1sc(NC(=O)C(C)(C)Oc2ccc(Cl)cc2)c(C#N)c1C | 62
CC(=O)Nc1ccc(S(=O)(=O)Nc2c(C)nn(-c3ccccc3)c2C)cc1 | 25
Cc1cc(I)cnc1NC(=O)COc1ccc([N+](=O)[O-])cc1 | 4
C[C@H]1CN([C@@H](C)CO)C(=O)Cc2cc(NS(=O)(=O)c3ccccc3)ccc2O[C@H]1CN(C)Cc1ccc2c(c1)OCO2 | 4
C[C@H](CO)N1C[C@H](C)[C@H](CN(C)S(=O)(=O)c2cn(C)cn2)Oc2ccc(NC(=O)CCC(F)(F)F)cc2CC1=O | -9
C[C@H]1CN([C@@H](C)CO)C(=O)Cc2cc(NC(=O)NC3CCCCC3)ccc2O[C@H]1CN(C)C | 27
O=S(=O)(c1ccccc1)N1CCN(CC(O)COc2ccc3c(c2)CCC3)CC1 (stereo unspecified) | 10
C[C@H]1CN([C@@H](C)CO)C(=O)Cc2cc(NC(=O)C3CCCCC3)ccc2O[C@H]1CN(C)S(C)(=O)=O | -16
Cc1ccc(S(=O)(=O)N(C)C[C@H]2Oc3ccc(NC(=O)Nc4ccc(F)cc4)cc3CC(=O)N([C@H](C)CO)C[C@H]2C)cc1 | -10
Cc1ccccc1CN(CC(N)=O)S(=O)(=O)c1ccc(Cl)cc1 | -6
C[C@@H]1CN([C@H](C)CO)C(=O)Cc2cc(NC(=O)NC3CCCCC3)ccc2O[C@H]1CN(C)Cc1ccc2c(c1)OCO2 | 43
COc1cc(-c2oc3cc(O)c(OC)c(O)c3c(=O)c2O[C@@H]2O[C@H](CO[C@@H]3O[C@H](CO)[C@@H](O)[C@H](O)[C@H]3O)[C@@H](O)[C@H](O)[C@H]2O[C@@H]2OCC(O)(CO)[C@H]2O)ccc1O (stereo partly specified) | 25
C[C@@H]1CN([C@H](C)CO)C(=O)Cc2cc(NS(=O)(=O)c3cccs3)ccc2O[C@@H]1CN(C)C(=O)Nc1ccc(F)cc1 | 22
O=C1c2cccc3cccc(c23)C(=O)N1CCCSc1n[nH]c(-c2ccc(F)cc2)n1 | 26
COC(=O)C1=C(N)C(C(=O)OC)=c2s/c(=C/c3ccccc3)c(=O)n2C1c1ccccc1 (stereo unspecified) | 30
Cc1c(Cl)cccc1NC(=O)CN(c1ccc(F)c(Cl)c1)S(C)(=O)=O | 24
C[C@@H]1CN([C@@H](C)CO)C(=O)Cc2cc(NC(=O)Nc3ccc4c(c3)OCO4)ccc2O[C@@H]1CN(C)Cc1ccc(Cl)c(Cl)c1 | 39
O=C(NCCN1CCOCC1)C(=O)Nc1cccc(F)c1 | 4
COC(=O)c1ccc2c(=O)n(-c3ccccc3)c(SCC(=O)Nc3ccccc3)nc2c1 | ?
CC(C)(C)C(=O)N1CCN(c2ccc([N+](=O)[O-])c(NCc3cccnc3)c2)CC1 | 46
C[C@@H]1CN([C@@H](C)CO)C(=O)c2cc(NC(=O)C3CC3)ccc2O[C@H]1CN(C)S(=O)(=O)c1cn(C)cn1 | 7
C[C@@H]1CCCCO[C@H](CN(C)Cc2ccncc2)[C@@H](C)CN([C@H](C)CO)C(=O)c2cc(NC(=O)Nc3ccccc3)ccc2O1 | 4
CC1=C(c2ccc(C)cc2)[N+](=O)C(C)(C)N1[O-] | 20
C[C@@H]1CCCCO[C@@H](CN(C)C(=O)Cc2ccccc2)[C@@H](C)CN([C@H](C)CO)C(=O)c2cc(NC(=O)c3ccccc3)ccc2O1 | 31
CSc1ccccc1NC(=O)Cn1c(-c2cscn2)nc2ccccc21 | 6
COc1ccc(OC)c(CN=c2c([N+](=O)[O-])nn(-c3ccc(Cl)cc3)n2O)c1 | 49
C[C@@H]1CN([C@H](C)CO)C(=O)c2cccc(NC(=O)C3CCCCC3)c2O[C@H]1CN(C)CC1CCCCC1 | 111*
O=C(CCN1C(=O)c2ccc([N+](=O)[O-])cc2C1=O)Nc1cccc(I)c1 | 14
COc1cccc2cc(C(=O)C3C(=O)C(=O)N(Cc4ccco4)C3c3cccnc3)oc12 (stereo unspecified) | 5

An excerpt; count on the stated rates, not on these rows.
